HPGD inh = qHTS Assay for Inhibitors of HPGD (15-Hydroxyprostaglandin Dehydrogenase). 15-hydroxyprostaglandin dehydrogenase [NAD(+)] (Homo sapiens), P15428. purified HPGD, NADH fluorescence kinetic, PGE2 substrate. Potency, µM, without a hit: at the top dose activity change, negative = inhibition, usual class: inhibitors. 150,000 compounds, 4.3% hits; active = well fitted inhibition curve with a large enough effect (not every such curve was filed as active); inconclusive = small, poorly fitted or top-dose-only effect, or another doubt; inactive = no such curve, though single readings can be large or run the other way;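 note: top concentration of the series not given in the record; plate controls included wells without enzyme; inactives centre near -10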
Target sequence (P15428 whole entry, looked up): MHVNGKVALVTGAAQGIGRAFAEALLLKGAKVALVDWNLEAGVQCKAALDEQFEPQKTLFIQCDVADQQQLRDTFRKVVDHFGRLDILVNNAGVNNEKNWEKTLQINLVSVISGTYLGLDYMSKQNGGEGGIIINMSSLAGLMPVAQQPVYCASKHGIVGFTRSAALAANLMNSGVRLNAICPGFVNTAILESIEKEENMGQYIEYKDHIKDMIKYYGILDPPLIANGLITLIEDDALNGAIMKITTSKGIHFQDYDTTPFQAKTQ
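20 nM HPGD preincubated 15 min at room temperature with compound in 50 mM Tris-HCl pH 8, 0.01% Tween 20. Started with 1 mM NAD+ and 30 uM prostaglandin E2; NADH fluorescence (360/450 nm) read 5 times over 30-s intervals, last minus first.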
Starred values were filed as active, the others as inactive; & = joins results of further samples. % is set by controls: 0 for no effect and ±100 for the full control effect; potency is the fitted concentration of half-maximal effect. Only part of the results is shown. The share of hits here may be higher or lower than overall.

For Cc1ccc(C2CC(=O)NC(SCCC(C)C)=C2C#N)cc1 (stereo not drawn) the results were HPGD inh inconclusive.
For COC(=O)[C@@]1(Cc2ccc(F)cc2)[C@H]2c3cc(C(=O)N4CCCC4)n(CCc4c[nH]c5cc(F)ccc45)c3C[C@H]2CN1C(=O)c1ccccc1 the results were HPGD inh -15%.
O=C(COC(=O)Cc1ccc(S(=O)(=O)N2CCOCC2)s1)Nc1ccc2c(c1)OCO2 was read as HPGD inh -12%.
`O=S(=O)(c1cnccc1N1CCN(/N=C/c2ccccc2)CC1)N1CCCCC1` gave HPGD inh -10%.
CCC(C)Oc1nc2ccccc2nc1NS(=O)(=O)c1ccccc1 (stereo not drawn) was read as HPGD inh -15%.
C=CCNC(=O)COc1ccc(S(=O)(=O)Nc2ccc(OCC)cc2)cc1 was read as HPGD inh -7%.
Screening COC(=O)c1ccccc1NC(=O)/C=N/O returned HPGD inh inconclusive.
COc1cc(OC)c2c(C)c(Cl)c(=O)oc2c1 was read as HPGD inh inconclusive.
Screening Cc1ccc(/C=N/NC(=O)CN(Cc2ccccc2)S(=O)(=O)c2ccc3c(c2)OCCO3)cc1 returned HPGD inh -8%.
`COc1ccc2c(c1OC)C(=O)N1N=C(c3ccc(Br)cc3)CC21` (stereo not drawn) gave HPGD inh -22%.
CCN1C(=O)/C(=C\c2ccncc2)SC1=Nc1ccc(C)c(C)c1 was read as HPGD inh -29%.
`COc1ccc2c(c1)OCC(Cc1ccc(OC)c(OC)c1)C2=O` (stereo not drawn) gave HPGD inh -10%.
For COc1ccc(C(=O)N=c2c(C#N)cc3c(=O)n4cccc(C)c4nc3n2Cc2ccco2)cc1 the results were HPGD inh -28%.
Screening CC(=O)Nc1ccc(C(=O)N2CCN(C(=O)c3ccco3)CC2)cc1 returned HPGD inh -2%.
Screening O=C1CC(Cc2ccccc2)C(=O)N1CCCn1ccnc1 (stereo not drawn) returned HPGD inh 0%.
For CCOC(=O)CNC(=O)c1ccc(C)cc1 the results were HPGD inh -18%.
Screening O=C(CCCn1c(=S)[nH]c2cc3c(cc2c1=O)OCO3)N1CCN(c2ccccc2)CC1 returned HPGD inh -28%.
`CN(C)CCCN=C(N)N` gave HPGD inh -5%.
Screening CCC(C(=O)OCC(=O)Nc1c(Cl)cc(Cl)cc1Cl)c1ccccc1 (stereo not drawn) returned HPGD inh -8%.
Screening COc1ccc2[nH]c(-c3ccc(C)cc3)cc(=O)c2c1 returned HPGD inh inconclusive.
For CC(C)CC(=O)c1c[nH]c(C(=O)NCCc2ccccn2)c1 the results were HPGD inh 1%.
For C[C@]1(C(=O)NCCc2c[nH]c3ccccc23)C=C[C@@H](Cc2ccccc2)N1C(=O)c1ccccc1 the results were HPGD inh -13%&-10%.
Screening CCCN1C2=NCCCN2c2ccccc21 returned HPGD inh 0%.
Screening COc1ccccc1C1(CC(=O)Nc2nccs2)CCOC(C(C)C)C1 (stereo not drawn) returned HPGD inh -5%.
`NC(=O)CC[C@H](NC(=O)OCc1ccccc1)C(=O)OCc1ccc(Cl)cc1` gave HPGD inh -13%.
`CC(C)C[C@@H](CC(=O)N[C@@H](CCCN)CC(=O)N[C@@H]1CCNC[C@H]1C(=O)N[C@H](CC(=O)N[C@@H](CCC(=O)O)CC(=O)O)CC(C)C)NC(=O)[C@@H]1CCCC[C@H]1N` gave HPGD inh -3%.
COc1ccc(-c2cc(NCCc3ccncc3)n3ncnc3n2)cc1 was read as HPGD inh inconclusive.
Screening COc1ccc(OCCSc2nnc(-c3ccoc3C)n2C)cc1 returned HPGD inh -11%.
For N#CCCn1c(Cl)nc2ccccc21 the results were HPGD inh -7%.
COc1ccccc1-n1c(CNC(=O)c2ccco2)nnc1SCC(=O)Nc1nccs1 was read as HPGD inh -9%.
Screening Cc1ccnc(NS(=O)(=O)c2ccc(N)cc2)n1 returned HPGD inh -13%&7%&-1%.
For O=C(NCc1ccco1)C1CCN(C(=O)c2cc3sccc3n2Cc2ccc(F)cc2)CC1 the results were HPGD inh -14%.
`CCOC(=O)c1ccc(NC(=O)CSc2nnc(-c3ccncc3)n2C)cc1` gave HPGD inh -11%.
Cc1nn(S(=O)(=O)N(C)C)c(C)c1CN1C(=O)c2ccccc2C1=O was read as HPGD inh -8%.
Screening CCC(C)n1c(SCC(=O)NC(=O)Nc2ccc3c(c2)OCCO3)nc2ccccc2c1=O (stereo not drawn) returned HPGD inh -3%.
`CC1(C(=O)CSc2n[nH]c(-c3ccccc3Cl)n2)CCC(=O)O1` (stereo not drawn) gave HPGD inh -19%.
Cc1cc2nc(C)c(Cc3ccccc3)c(=O)n2[nH]1 was read as HPGD inh inconclusive.
For COc1ccc([C@@H](C)c2cc3c(cc2O)OCO3)cc1 the results were HPGD inh -9%.
For COc1ccc(C(=O)NC(=S)Nc2cccc(NC(=O)c3ccco3)c2)cc1[N+](=O)[O-] the results were HPGD inh -8%.
CCN1CCN(CNC(=O)c2cnccn2)CC1 was read as HPGD inh 5%.
For Cc1noc(C)c1COC(=O)Cc1ccc(Cl)cc1 the results were HPGD inh -10%.
`CCc1nc2oc3ccccc3c(=O)c2c(=O)n1CCOC` gave HPGD inh -7%.
For O=C(Oc1nsnc1N1CCOCC1)N(c1ccccc1)c1ccccc1 the results were HPGD inh -5%.
For CCCCSc1nc2ccc(Nc3nc(N4CCOCC4)nc(N4CCOCC4)n3)cc2s1 the results were HPGD inh -21%.
Screening C=CCn1c(O)c(N=NC(=S)Nc2ccc(OC)cc2)c2ccccc21 returned HPGD inh -14%.

Taken from the results shown (2 entries):
For O=C(NCc1ccco1)C1CCN(C(=O)c2cc3sccc3n2Cc2ccc(F)cc2)CC1 the results were HPGD inh -14%.
`CCOC(=O)c1ccc(NC(=O)CSc2nnc(-c3ccncc3)n2C)cc1` gave HPGD inh -11%.

Carrying on:
`CCOC(=O)C(=NC(C)CC)NNc1ccc(Br)cc1` (stereo not drawn) gave HPGD inh -5%.
For CC(C)(C)NC(=O)c1cc(Cl)ccc1[N+](=O)[O-] the results were HPGD inh -8%.
`OC(CN1CCOCC1)Cn1c(-c2cccc(Cl)c2)nc2ccccc21` (stereo not drawn) gave HPGD inh -17%.
C=CCn1c(=O)c2c(C)c(C)sc2n2c(Nc3ccccc3)nnc12 was read as HPGD inh -21%.
For COc1cc2nc(C3CCC3)n(NC(=O)C3CCC(OC)CC3)c(=O)c2cc1OC (stereo not drawn) the results were HPGD inh -5%.
CCOC(=O)C1CCN(CC(=O)c2c(C)[nH]c3ccccc23)CC1 was read as HPGD inh -3%.
For CN1CCC(N(C)C(=O)c2ccccc2Nc2ccc(SC(F)F)cc2)CC1 the results were HPGD inh -3%.
Screening O=C(COC(=O)C12CC3CC(CC(C3)C1)C2)NCc1ccco1 returned HPGD inh -7%.
For CCCOc1ccc(N2C(=O)CC(N3CCC(O)(c4cccc(C(F)(F)F)c4)CC3)C2=O)cc1 (stereo not drawn) the results were HPGD inh -8%.
For COc1ccc(-c2cc(-c3cccs3)c(C#N)c(SCC(=O)NCc3ccccc3OC)n2)cc1 the results were HPGD inh inconclusive.
Screening CCn1c(C)c(C(C)=O)c(N2CCN(c3ccc(F)cc3)CC2)nc1=S returned HPGD inh -6%.
`COc1ncc2nc(-c3cc(F)cc(F)c3)c(=O)n(CCC#N)c2n1` gave HPGD inh inconclusive.
`O/N=C/c1ccccc1OCc1ccccc1Cl` gave HPGD inh inconclusive.
For CCCN1CCN(C(=O)CN2C(=O)CC(C)(C)S(=O)(=O)c3ccccc32)CC1 the results were HPGD inh -3%.
`CCOC(=O)C1=C(c2ccccc2)Nc2ncnn2C1c1cccc(OC)c1OC` (stereo not drawn) gave HPGD inh 3%.

Structures above that contain a thiophene ring, fused or not, in the order listed:
O=C(COC(=O)Cc1ccc(S(=O)(=O)N2CCOCC2)s1)Nc1ccc2c(c1)OCO2 was read as HPGD inh -12%.
For O=C(NCc1ccco1)C1CCN(C(=O)c2cc3sccc3n2Cc2ccc(F)cc2)CC1 the results were HPGD inh -14%.
C=CCn1c(=O)c2c(C)c(C)sc2n2c(Nc3ccccc3)nnc12 was read as HPGD inh -21%.
For COc1ccc(-c2cc(-c3cccs3)c(C#N)c(SCC(=O)NCc3ccccc3OC)n2)cc1 the results were HPGD inh inconclusive.

More results.
`CS(=O)(=O)N(CC(=O)Nc1cccnc1)c1ccc2c(c1)OCO2` gave HPGD inh -12%.
`CCOc1cccc(OCCOCCN(C)C)c1` gave HPGD inh -3%.
Screening COc1ccc(C2SCC(=O)N2CCCN(C)C)cc1 (stereo not drawn) returned HPGD inh -8%.
`Cc1c(Cl)cccc1NC(=O)C1NC(=O)CC1c1ccccc1` (stereo not drawn) gave HPGD inh -6%.
`CCc1ccc(N2CC(C(=O)NCc3ccc4c(c3)OCO4)CC2=O)cc1` (stereo not drawn) gave HPGD inh 1%.
`CCC1OC(=O)C(C)[C@@H](O[C@H]2C[C@@](C)(OC)C(O)C(C)O2)C(C)[C@@H](O[C@@H]2OC(C)CC(N(C)C)C2O)[C@](C)(O)CC(C)/C(=N\OCOCCOC)[C@H](C)C(O)[C@]1(C)O` (stereo partly drawn) gave HPGD inh -2%.
`CC(CO)N1CCS(=O)(=O)CC1` (stereo not drawn) gave HPGD inh 1%.
Screening CCC(C)NC(=O)C(CCSC)NC(=O)c1ccccc1 (stereo not drawn) returned HPGD inh 3%.
For CCOC(=O)C1=C(C)OC(N)=C(C#N)C1c1cc2ccccc2nc1N1CCCCC1 (stereo not drawn) the results were HPGD inh -10%.
For COc1cc2c(cc1OC)-c1cc(NC3CCCCCCC3)nc(=O)n1CC2 the results were HPGD inh inconclusive.
CCN(CC)S(=O)(=O)c1ccc(-c2nnc(SCC(=O)Nc3nc(C)cs3)o2)cc1 was read as HPGD inh -8%.
Cc1cc(C(=O)OCC(=O)c2c(N)n(C)c(=O)n(C)c2=O)c(C)o1 was read as HPGD inh -5%.
CCOC(=O)c1cn2cccnc2n1 was read as HPGD inh inconclusive.
CCOc1ccc(S(=O)(=O)Nc2ccccc2C(=O)NCc2ccco2)cc1 was read as HPGD inh inconclusive.
For COc1ccc(-c2nc(CSCC(=O)N3CCc4ccccc4C3)c(C)o2)cc1OC the results were HPGD inh inconclusive.
CCOC(=O)c1cc2ccccc2n1CCN(CC)CC was read as HPGD inh -8%.
For O=C(OCn1nnc2ccccc2c1=O)C1=COCCO1 the results were HPGD inh -13%.
N#CCSc1nccc(-c2cc(Cl)sc2Cl)n1 was read as HPGD inh -21%.
Screening CCCCN(C)C(=O)c1sc2ncn(CC)c(=O)c2c1C returned HPGD inh 16µM*.
Screening Cc1ccc(-n2nnnc2-c2cnc(-c3cccnc3)nc2C(F)(F)F)cc1 returned HPGD inh -1%.
CC(=NCCCNC1CCCCC1)C1=C(O)CC(C)(C)CC1=O was read as HPGD inh -4%.
Screening COc1ccccc1-n1c(CNC(=O)COc2ccccc2)n[nH]c1=S returned HPGD inh inconclusive.
COc1ccc(CCN(C)CCCC(C#N)(c2cc(OC)c(OC)c(OC)c2)C(C)C)cc1OC (stereo not drawn) was read as HPGD inh -2%&-6%.
CCn1nc(NS(=O)(=O)c2ccccc2)c2cc3cccc(C)c3nc21 was read as HPGD inh -5%.
Screening Cc1ccc(CCNS(=O)(=O)c2ccc(C)cc2)cc1 returned HPGD inh -6%.
C/C(Cn1nnc([N+](=O)[O-])n1)=N\NC(=O)c1cccc(Cl)c1 was read as HPGD inh -1%.
For CC(=O)c1cccc(NC(=S)NC(=O)c2cccc(C)c2)c1 the results were HPGD inh 22µM*.
For COc1ccccc1CN1CC[C@@]2(CCCN(C(=O)c3ccncc3)C2)C1 the results were HPGD inh -2%.
COc1cc2c(cc1OC)CN(Cc1ccc(C)s1)CC2 was read as HPGD inh -10%.
`O=C1c2oc3ccc(Br)cc3c(=O)c2C(c2cccc(F)c2)N1CCO` (stereo not drawn) gave HPGD inh -2%.

Structural class: those above containing bromine.
`COc1ccc2c(c1OC)C(=O)N1N=C(c3ccc(Br)cc3)CC21` (stereo not drawn) gave HPGD inh -22%.
`CCOC(=O)C(=NC(C)CC)NNc1ccc(Br)cc1` (stereo not drawn) gave HPGD inh -5%.
`O=C1c2oc3ccc(Br)cc3c(=O)c2C(c2cccc(F)c2)N1CCO` (stereo not drawn) gave HPGD inh -2%.

Additional results follow.
`Cc1nc2c(-c3ccccc3)c(C)nn2c(C)c1CCC(=O)N1CCOCC1` gave HPGD inh -16%.
Screening Cc1nc2sc(C#N)c(N)c2c2c1CCCC2 returned HPGD inh inconclusive.
For CCn1nc(C(=O)Nc2ccccc2C)c(Cl)c1Cl the results were HPGD inh -26%.
O=C(O)CCC(=O)O was read as HPGD inh -9%.
`O=C(OCCCCN1C(=O)c2ccccc2C1=O)c1n[nH]c2ccccc12` gave HPGD inh 32µM*.
For O=C(NCc1nnc(SCC(=O)N2CCCCCC2)o1)c1ccco1 the results were HPGD inh -19%.
For NC(=O)c1ccccc1NC(=O)Nc1cccc(Cl)c1Cl the results were HPGD inh -21%.
`CN=c1scc(-c2ccc(Cl)cc2)n1C` gave HPGD inh -6%.
COc1ccc(S(=O)(=O)Nc2ccccc2C(=O)OC2CCCN(C)C2)cc1OC (stereo not drawn) was read as HPGD inh -8%.
`COc1ccc(C2C(C(C)=O)=C(O)C(=O)N2c2ccc(Br)cn2)cc1` (stereo not drawn) gave HPGD inh -13%.
For CCOC(=O)c1cc2c(C)n(-c3ccc(OCC)cc3)c(C)c2ccc1=O the results were HPGD inh -15%.
CCOC(=O)c1c(NC(=O)CSc2nnc(-c3c[nH]c4ccccc34)n2C)sc2c1CCCC2 was read as HPGD inh -11%.
Screening CN1CCN(Cc2c(C#N)c3ccccc3n2C)CC1 returned HPGD inh 1%.
For CC(C)OCCCN1C(=O)c2[nH]nc(-c3ccccc3O)c2C1c1cccc(Cl)c1 (stereo not drawn) the results were HPGD inh -22%.
